Screens from PubChem BioAssay.
KCNQ2 pot = enhances the rat KCNQ2 potassium channel. CHO-K1 KCNQ2, FluxOR thallium flux fluorescence; stronger effect = higher value. B-score at 10 µM. hit rate 0.54% among 310,000. AID 2239;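 active = fluorescence ratio B-score at least 3 SD of library B-scores, with initial fluorescence B-score within 3 SD, cut at about 5.3 in these data; same plate scores as AID 2156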;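 note: B-score of peak minus minimum over baseline fluorescence ratio after K+ and Tl+ stimulus; positive B-score means potentiation of KCNQ2 with more thallium influx and brighter signal; only the inactives scoring about 0 or higher are listed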
Target sequence (O88943 whole entry, looked up): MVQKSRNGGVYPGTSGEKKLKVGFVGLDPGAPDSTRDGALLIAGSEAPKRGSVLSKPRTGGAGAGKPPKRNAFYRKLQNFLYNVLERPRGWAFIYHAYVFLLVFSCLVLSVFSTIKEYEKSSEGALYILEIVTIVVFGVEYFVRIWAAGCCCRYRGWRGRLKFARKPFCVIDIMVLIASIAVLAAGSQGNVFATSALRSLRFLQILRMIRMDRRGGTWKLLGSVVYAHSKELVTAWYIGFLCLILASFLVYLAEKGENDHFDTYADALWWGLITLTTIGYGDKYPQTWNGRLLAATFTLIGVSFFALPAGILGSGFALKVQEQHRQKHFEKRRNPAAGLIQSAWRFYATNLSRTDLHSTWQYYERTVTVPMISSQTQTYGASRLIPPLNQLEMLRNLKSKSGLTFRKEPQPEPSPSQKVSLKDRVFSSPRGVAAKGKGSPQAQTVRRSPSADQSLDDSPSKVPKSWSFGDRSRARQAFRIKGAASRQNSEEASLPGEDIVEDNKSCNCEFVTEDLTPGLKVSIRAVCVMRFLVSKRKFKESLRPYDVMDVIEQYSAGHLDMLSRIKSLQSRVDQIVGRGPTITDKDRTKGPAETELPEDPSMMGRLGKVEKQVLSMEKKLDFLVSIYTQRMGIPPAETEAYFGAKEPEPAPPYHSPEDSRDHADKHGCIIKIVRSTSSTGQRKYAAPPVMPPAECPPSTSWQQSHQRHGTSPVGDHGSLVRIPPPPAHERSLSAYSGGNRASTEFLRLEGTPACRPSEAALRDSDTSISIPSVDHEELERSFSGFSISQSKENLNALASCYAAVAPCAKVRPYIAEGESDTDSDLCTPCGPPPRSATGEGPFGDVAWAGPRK
KCNQ2 pot baseline = recorded beside KCNQ2 pot, whose call it bears; B-score; compound at 10 µM; measured here: initial fluorescence intensity artifact check;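 brightness before thallium and not channel activity; 0 = typical well and far values either way flag optical interference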
Numbers without * were called inactive.

Order of results – KCNQ2 pot, KCNQ2 pot baseline
> CC1=NN(C(=O)c2ccc(Br)cc2)C(O)(c2ccccc2)C1 (centres undefined)
    6.8*, -2.9*
> CC(=O)Nc1ccc(NC(=O)C/C(C)=N/NC(=O)C(=O)Nc2ccc(C)c(Cl)c2)cc1
    0.63, -0.83
> Cc1ccc(CNC(=O)C2C3C=CC4(CN(Cc5cccnc5)C(=O)C24)O3)cc1 (centres undefined)
    0.28, -0.02
> O=C(CCSCc1ccc(Cl)cc1)NCCC1=CCCCC1
    0.05, 0.34
> COc1ccc(NC(=O)Nc2cc3oc4ccccc4c3cc2OC)cc1
    0.77, -0.11
> Cc1nc2ccccc2nc1OCC(=O)Nc1ccc(F)cc1
    0.88, 0.7
> CCCc1c(C(=O)Nc2cc(C)on2)cnn1-c1ccccc1
    0.43, 0.64
> O=C(Oc1ccc2ccc(=O)oc2c1)c1cccs1
    0.53, 0.66
> CC(=O)N1CCC2(CC1)C(C#N)=C(N)OC1=C2C(=O)CC(C)(C)C1
    0.86, -0.2
> O=C(c1ccc2c(=O)n(Cc3ccccc3)c(=S)[nH]c2c1)N1CCCC1
    1.4, 0.72
> COc1cccc(CN2CCN(Cc3cc(OC)c(OC)cc3OC)CC2)c1
    1.1, 0.35
> Cc1cccc(C)c1OCC(=O)Nc1ccc(NC(=O)c2ccco2)cc1
    0.41, -0.32
> COc1ccc(NC(=O)C2CCOC2=O)cc1 (centres undefined)
    0.64, 0.32
> Cc1cccc2nc(CSc3ncccc3C(=O)O)cn12
    0.09, -1.8
> CCOc1ccc(Nc2cc(C)nc3c(C)cccc23)cc1
    0.81, 0.08
> O=C(O)CN1C2=NCCCN2c2ccccc21
    0.83, -0.58
> O=C(Nc1ccc(F)cc1F)C1CCN(S(=O)(=O)c2cccnc2)CC1
    1.4, -0.65
> O=C(O)CCc1nc(-c2cccs2)no1
    0.01, 0.35
> O=c1c(-c2ccccc2)c(O)nc2ccccn12
    1, 0.44
> C=C(C)c1cccc(C(C)(C)NC(=O)N(C)C2CCN(C)CC2)c1
    0.83, 0.91
> O=[N+]([O-])c1cc(Cl)ccc1NCCc1ccccn1
    0.01, 0.11
> O=[N+]([O-])c1ccc(N2CCOCC2)cc1NCCCO
    0.37, -0.08
> Cn1ncc2nc[nH]c(=O)c21
    0.31, 0.01
> CNCC(O)CN1CCN(c2ccccc2OC)CC1 (centres undefined)
    2.4, -1.8
> Cn1nc(C(F)(F)F)c(C(=O)Nc2ccc(F)cc2F)c1Sc1cccc(C(F)(F)F)c1
    1.8, -1.3
> Cc1ccc2c(c1)cc1c(=O)n(CC(=O)N(C)c3ccccc3)nc(C)n12
    0.8, 0.12
> CC(C)CCC(CC(C)O)c1n[nH]c(=S)n1-c1ccccc1 (centres undefined)
    1.3, 0.33
> O=C(COC(=O)c1nc(Cl)ccc1Cl)NCCc1ccccc1
    2, 0.49
> O=C1CC(N2CCOCC2)C(=O)N1CCN1C(=O)CC(N2CCOCC2)C1=O (centres undefined)
    0.35, 1.1
> Cc1ccc(S(=O)(=O)n2nc(OC(=O)c3ccco3)cc2N)cc1
    0.21, -0.6
> Fc1ccc(CSc2nnc3ccc(-c4ccncc4)nn23)cc1
    1.3, -1.6
> CC(C)CCn1nnnc1C(C(C)C)N1CCC(C(N)=O)CC1 (centres undefined)
    1.4, 0.91
> Cc1cccc(NC(=O)Nc2ccc3c(c2)OCO3)n1
    0.1, 1.8
> Cc1cc(NC(=O)CCC(=O)N(c2cccc(F)c2)C(C(=O)NC2CCCC2)c2ccccc2)no1 (centres undefined)
    0.64, -0.94
> CC(C(=O)Nc1ccc2c(c1)OCO2)c1ccc([N+](=O)[O-])cc1 (centres undefined)
    0.26, 1.5
> CCOc1ncccc1C(=O)N(C)CC(=O)Nc1ccc(C)cc1
    0.01, -1.1
> C=C(C)CN(CC)C(=O)CC1C(=O)NCCN1CC(C)(C)C (centres undefined)
    0.26, -0.04
> Cc1ccc(-c2c(C(=O)NCc3ccccc3)oc(=O)c3ccccc23)cc1
    1.5, 1.5
> O=C(Nc1ccccc1)c1cccc(N2C(=O)CCC2=O)c1
    0.59, -1.6
> CCOC(=O)N1CCN(CCC(=O)Nc2ccc(OC)cc2OC)CC1
    0.21, -0.15
> OCCC1CN(Cc2cnc(-c3ccc(Cl)cc3)nc2)CCN1C1CCCC1 (centres undefined)
    0.04, 0.57
> O=[N+]([O-])c1cccc2ncccc12
    1.5, -0.13
> O=C(NCN1C(=O)C2C3C=CC(C3)C2C1=O)OC1CCCCC1 (centres undefined)
    0.08, 0
> CS(=O)(=O)N(CC(=O)NCCSC1CCCCC1)c1ccc2c(c1)OCO2
    0.02, -1.5
> CC(=O)Nc1c(O)nc(SCC(=O)Nc2sc3c(c2C#N)CCCCCC3)[nH]c1=O
    1.1, -0.08
> COc1ccc(C(=O)NCC(C)NC(=O)c2ccc(OC)c(OC)c2)cc1OC (centres undefined)
    0.48, 0
> O=C(CN1CCN(Cc2ccc(F)cc2)CC1)NCCc1ccccc1
    1.1, -0.05
> Cc1ccccc1/C(N)=N/OC(=O)c1ccc(F)cc1
    0.49, -0.39
> Cc1ccc(S(=O)(=O)NCCCCCC(=O)NCCc2ccccc2)cc1
    0.78, -0.01
> O=C(/C=C/c1ccc(F)cc1)N1CCN(Cc2ccccc2)CC1
    1.5, 1.8
> COc1ccc(/C=C2/Sc3ccc(C(=O)N4CCOCC4)cc3NC2=O)cc1OC
    0.97, 1.3
> Cc1ccc(S(=O)(=O)NCCNC(=O)C2CCCNC2=O)cc1 (centres undefined)
    1.4, 0.32
> O=C(NCCOC(=O)c1ccc(Cl)cc1)c1cccnc1
    0.67, 3.1
> COc1ccccc1CCN=C(N)NS(=O)(=O)c1ccccc1F
    0.01, -0.6
> C=CCc1c(C)[nH]c2ccc(C)cc2c1=O
    1.1, -1.1
> Cn1c(SCC(=O)Nc2cccc(O)c2)nnc1-c1ccc(S(=O)(=O)N2CCOCC2)cc1
    0.7, 0.05
> CCOc1ccc(NC(=S)c2ccncc2)cc1
    1.1, -0.05
> Cc1cccc(C(=O)Nc2ccccc2SCC(=O)Nc2ccc(C)c(Cl)c2)c1
    0.47, -0.82
> O=C(Nc1ncnc2sc3c(c12)CCCCC3)c1ccccc1
    0.66, -0.52
> CCCOc1ccc(-c2csc3nc[nH]c(=O)c23)cc1
    1.1, 0.01

Three entries out of the list, arranged by formula weight, low to high.
Order of results – KCNQ2 pot, KCNQ2 pot baseline
> COc1ccc(C(=O)NCC(C)NC(=O)c2ccc(OC)c(OC)c2)cc1OC (centres undefined)
    0.48, 0
> COc1ccc(/C=C2/Sc3ccc(C(=O)N4CCOCC4)cc3NC2=O)cc1OC
    0.97, 1.3
> Cn1c(SCC(=O)Nc2cccc(O)c2)nnc1-c1ccc(S(=O)(=O)N2CCOCC2)cc1
    0.7, 0.05

Continued.
Order of results – KCNQ2 pot, KCNQ2 pot baseline
> O=C(NCCNC(=O)c1ccccn1)c1ccc(F)cc1
    0.46, -0.15
> CSc1ncccc1C(=O)Nc1nc2c(C)cccc2s1
    0.01, 1.2
> CC1CCCCC1NC(=O)c1cn(C)c2ccc(S(=O)(=O)N3CCOCC3)cc2c1=O (centres undefined)
    0.06, 0.42
> CN(C(=O)CSCC(=O)O)C1CCCCC1
    0.9, 0.23
> COC(=O)Nc1ccc(S(=O)(=O)NC2CCCCC2)cc1
    0.8, -1.5
> CC(C)c1ccc(NC(=O)C2C3C=CC4(O3)C2C(=O)N(CCN2CCOCC2)C4C(=O)NC2CCCCC2)cc1 (centres undefined)
    1.3, 1.6
> COC(=O)NCN1C(=O)C2C3C=CC(C3)C2C1=O (centres undefined)
    0.13, 0.95
> CC(C)C(NS(=O)(=O)c1ccc2c(c1)oc(=O)n2C)C(=O)N1CCN(C2CCCCC2)CC1 (centres undefined)
    1, -1.8
> CCOC(=O)N/N=C\c1ccc(C)s1
    2.1, -1.1
> O=C(O)c1ccccc1Nc1ccc([N+](=O)[O-])cc1
    2.6, -0.33
> O=C1c2ccccc2C(=O)N1CCCCN(C(=O)c1cc2ccccc2oc1=O)c1ccc(Cl)cc1
    2.3, 2
> O=C(O)C1CCCN1S(=O)(=O)c1cccc2nsnc12 (centres undefined)
    0.03, 0.7
> CC(=O)c1cccc(NC(=O)Cc2coc3cc4c(cc23)CCC4)c1
    1.4, -0.27
> O=C(Cn1cnc2c(nnn2Cc2ccccc2)c1=O)N1CCCc2ccccc21
    2.2, -0.72
> CCCN(CCC)CCCNC(=S)Nc1ccc2nc(N3CCN(CC)CC3)cc(C)c2c1
    1.6, -0.24
> O=C(O)c1nn(CC(=O)N2CCN(S(=O)(=O)c3ccc(Cl)cc3)CC2)c(=O)c2ccccc12
    0.38, -1.8
> O=C(O)c1ccc2c(c1)C(=O)N(CCc1ccccc1)C2=O
    0.03, -0.5
> COc1ccc(C)c2sc(=NC(=O)c3cccc(N4C(=O)CCC4=O)c3)n(C)c12
    0.44, -0.67
> CC1CCCC(NC(=O)C2CCN(S(=O)(=O)N3CCCCC3)CC2)C1C (centres undefined)
    1.2, -1
> Cn1c(=O)c2c(nc(CN3CCN(C(c4ccccc4)c4ccccc4)CC3)n2CC(N)=O)n(C)c1=O
    1.1, -0.17
> CCO/C=N/c1c(C#N)c2c(c(=S)n1C)COC(C)(C)C2
    0.96, 0.13
> CSc1nnc2c(n1)OC=Nc1ccccc1-2
    0.74, -0.82
> COc1ccccc1NC(=O)c1ccc(N)cc1
    0.56, 0.14
> CCCNC(=S)Nc1cccc(C(F)(F)F)c1
    1.7, 0.35
> CCOC(=O)C1Nc2ccccc2C2C(O)C(O)CC12 (centres undefined)
    3.3, -0.25
> O=C(Nc1ccc(F)cc1)C1CCCCC1
    0.12, -1.1
> O=C(Nc1ccc(S(=O)(=O)Nc2ncccn2)cc1)C12CC3CC(CC(C3)C1)C2
    1.1, 0
> Cc1ccc(S(=O)(=O)NCC(C)n2cncn2)cc1C (centres undefined)
    0.56, -0.15
> Cc1ccc(N2C(=O)CC(c3c[nH]c4ccccc34)C2=O)cc1 (centres undefined)
    0.18, -0.08
> O=C(c1ccc(S(=O)(=O)NCC2CCCO2)cc1)N1CCN(c2cccc(Cl)c2)CC1 (centres undefined)
    1.2, -1.8

Taken from above:
Value of `O=C(c1ccc(S(=O)(=O)NCC2CCCO2)cc1)N1CCN(c2cccc(Cl)c2)CC1` (centres undefined) in KCNQ2 pot baseline: -1.8
Value of `O=C(O)c1ccc2c(c1)C(=O)N(CCc1ccccc1)C2=O` in KCNQ2 pot: 0.03
Value of `Cn1c(=O)c2c(nc(CN3CCN(C(c4ccccc4)c4ccccc4)CC3)n2CC(N)=O)n(C)c1=O` in KCNQ2 pot baseline: -0.17

Later entries.
Order of results – KCNQ2 pot, KCNQ2 pot baseline
> Cc1ccc(S(=O)(=O)N2CCCCC2)cc1NC(=O)c1ccc2c(c1)OCO2
    0.02, -1.2
> O=C(NCC1CCCO1)c1cc(C(=O)C2CC2)c[nH]1 (centres undefined)
    1, -0.63
> Cn1nc(C(=O)Nc2cccc(Cl)c2)cc1C(=O)Nc1cccc(Cl)c1
    1.7, -0.8
> O=C(COC(=O)C1CCCCC1)Nc1ccc(N2CCCCC2)cc1
    2.3, -0.36
> COc1cc(SC)ccc1C(=O)OC1CCOC1=O (centres undefined)
    0.86, -3.1
> CS(=O)(=O)N1CC2CCCN2c2ccc(C(F)(F)F)cc21 (centres undefined)
    0.15, -1.2
> O=C(CCCc1nc(-c2ccc(Cl)cc2)no1)NC1CCCC1
    0.84, -0.52
> O=C(CSc1n[nH]c(-c2ccccc2)n1)c1ccc(O)c(O)c1
    3, -0.65
> Cn1ncc(Cl)c1C(=O)Nc1nnc(C2CC2)s1
    0.25, -1.2
> CCOC(=O)C1(CCOc2ccccc2)CCN(Cc2cc(OC)c(O)cc2Cl)CC1
    0.04, -2
> Cc1cccc(NC(=O)NNC(=O)c2nn(C)cc2Br)c1
    0.43, -0.62
> Fc1ccc(-n2c(-c3ccc4c(c3)OCO4)n[nH]c2=S)cc1Cl
    0.65, 0.59
> Cc1ccc(C(=O)N(c2ccccn2)C(C)c2ccco2)cc1 (centres undefined)
    0.46, -0.08
> O=C(Cc1ccccc1)N1CCN=C1SCc1cccc([N+](=O)[O-])c1
    0.38, -0.02
> O=C(c1ccco1)N1CCN(Cc2nnnn2C2CCCCC2)CC1
    1.5, -1.2
> O=Cc1ccccc1-c1cn(CN2C(=O)c3ccccc3C2=O)nn1
    1.6, 0.03
> O=C(Cc1c[nH]c2ccccc12)NNC(=O)c1ccccc1
    1.2, -1.5
> CC(=O)Oc1cccc(N2C(=O)C3C4C=CC(C4)C3C2=O)c1 (centres undefined)
    0.88, -0.89
> Cc1cccc(C)c1NC(=O)CN(C)S(=O)(=O)c1ccc(-c2ccc(=O)[nH]n2)s1
    0.03, 0.26
> COc1cc(C2/C(=C(/O)c3ccccc3)C(=O)C(=O)N2c2ccccn2)ccc1O (centres undefined)
    0.24, -1.5
> O=C(CC1C(=O)NCCN1Cc1ccccn1)NCCc1ccccc1F (centres undefined)
    1.5, -0.74
> C=CCn1c(CNS(=O)(=O)c2ccc(Br)cc2)nnc1SC
    0.1, -1.2
> NS(=O)(=O)c1ccc(C(=O)O)cc1
    1.3, 0.07
> COc1ccc(C(=O)Nc2ccnn2C2CCN(Cc3cccnc3)CC2)cc1
    1.2, 0.17
> COc1ccc(OC)c(NC(=O)Nc2cc(NC(=O)Nc3cc(OC)ccc3OC)c(C)nc2C)c1
    0.9, 1.3
> CCCCCCS(=O)Cc1ccccc1 (centres undefined)
    0.18, 0.43
> O=C(c1cccs1)N1CCN(C(=O)c2ccco2)c2ccccc2C1
    1.2, -0.09
> c1ccc(-c2nn[nH]n2)cc1
    0.24, 0.26
> CCCC(=O)N/N=C1\CS(=O)(=O)N(C)c2ccsc21
    0.77, -1.1
> NNC(=O)c1nc(-c2ccccc2)cc(-c2ccccc2)n1
    0.94, 1.4

Profiles, quoted from the list.
CCCC(=O)N/N=C1\CS(=O)(=O)N(C)c2ccsc21 is listed with KCNQ2 pot = 0.77; KCNQ2 pot baseline = -1.1
NNC(=O)c1nc(-c2ccccc2)cc(-c2ccccc2)n1 is listed with KCNQ2 pot = 0.94; KCNQ2 pot baseline = 1.4

These rows are one share of the data. The share of hits here may be higher or lower than overall.
